Autofluor counter = flagged as autofluorescent in microsphere protease counterscreen; compound autofluorescence counterscreen, microsphere flow cytometry; hits give high values; fluorescence intensity (no concentration beside the values); hit rate 3.1% among 360,000; AID 624483;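 active = at least 3 SD above the mean of all compounds, about 16000 in these data; inconclusive = too few beads counted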;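 note: 100 nL of 1 mM stock went into each well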
Mtb hypoxia inh = inhibitors of hypoxia-regulated fluorescent reporter in Mycobacterium tuberculosis; AID 1159583; fluorescence inhibition, % (no concentration beside the values); hit rate 0.1% among 300,000; M. tuberculosis hypoxia-regulated fluorescent reporter, fluorescence;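 active = 35 to 45% if threefold the growth effect, above 45% if 1.5-fold the growth effect; inactive = the rest, general growth blockers included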;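 note: wells of about 50 µL received 100 nL stock; 0% = vehicle wells and 100% = reference inhibitor wells; whole bacteria with a GFP reporter of the hypoxia response; strong numbers were not always called active; many hits fall short of the cut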
Sa ugtP lethal = compounds lethal to S. aureus RN4220 ugtP deletion mutant; OD600 growth, 16 h; some inactives read as strong as hits; growth inhibition, % (concentration not given with the values); hit rate 0.54% among 330,000;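 active = z-score under -3 and OD600 up to 0.15 on both plates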;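 note: plate controls were untreated wells for no effect and antibiotic for full effect; wells of about 80 µL received 100 nL stock; the first replicate is given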
PrP UTR inh = inhibition of PrP 5' UTR reporter expression. hit rate 0.35% among 340,000. inhibition, % (concentration not given with the values). cell-based PrP 5' UTR mRNA reporter, plate reader;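 active = every replicate at 50% or more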;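 note: 0 = median of the neutral control wells; tested in H4 reporter cells; numbers are from one replicate; inactives centre near -14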
RN4220 kill = kills Staphylococcus aureus RN4220; inhibition, % (test concentration not listed); AID 1259311; S. aureus RN4220 growth, OD600, 16 h; hit rate 0.33% among 330,000;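 active = z-score of -3 or lower and OD600 up to 0.18 on both plates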;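 note: plate controls were untreated cells for no effect and reference antibiotic for full effect; stock transfer was 100 nL into about 80 µL; one replicate is shown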
BJeLR lethal = kills HRASV12-expressing BJeLR cells; BJeLR (HRASV12) viability, CellTiter-Glo ATP luminescence, 48 h; reference of the scale not given here; inhibition, % (concentration not given with the values); hit rate 0.17% among 300,000;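 active = replicate mean above 50%; inconclusive = above 50% but judged a plate artefact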;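 note: 50 nL library stock added to about 25 µL; numbers are from one replicate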
Mtb hypoxia inh growth = also measured in Mtb hypoxia inh; calls as there; growth inhibition, %; measured here: M. tuberculosis growth (absorbance);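 0% = vehicle and 100% = reference antibiotic; read after six days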
Starred values were filed as active, the others as inactive; ? = inconclusive; · = not tested or not shown.

entry	molecule	Autofluor counter	Mtb hypoxia inh	Mtb hypoxia inh growth	Sa ugtP lethal	PrP UTR inh	RN4220 kill	BJeLR lethal
1	Cc1ccc(OCc2cc(C(=O)N(C)CCc3ccccc3)no2)cc1C	5796	4.0	8.8	-2.7	-59.5	5.6	-4.4
2	COc1ccc2[nH]c3c(NCc4ccco4)ncnc3c2c1	·	-6.4	2.3	-3.0	·	0.8	5.7
3	CC[C@H]1CN2CC[C@@]3(C(=O)Nc4ccccc43)[C@@H]2C[C@@H]1/C(=C\OC)C(=O)OC	4437	·	·	-4.1	·	-1.4	-0.5
4	NC(=O)c1cc2cc(Cl)ccc2oc1=NNC(=O)c1cccs1	·	-10.2	3.4	13.1	·	6.2	·
5	CC(C)(C)Nc1c([N+](=O)[O-])c(=O)sc2ccccc12	3373	11.5	-5.2	5.3	-5.2	10.8	-1.0
6	CCOC(=O)CS(=O)(=O)c1ccc(C(F)(F)F)cn1	2818	·	·	0.8	-2.8	-0.2	-10.7
7	COc1cc(OC)cc(C(=O)NC(=S)Nc2nnn(C)n2)c1	5936	19.9	4.0	4.5	-13.5	3.5	1.5
8	Cc1c(S(=O)(=O)N2CCc3ccccc3C2)c(=O)n(C)c(=O)n1C	4584	-1.4	10.4	-1.5	-6.0	-13.4	6.0
9	N#Cc1ccccc1NC(=O)CSc1nnc(-c2ccc(F)cc2)n1-c1ccccc1	3763	·	·	2.8	-2.4	5.2	-2.7
10	Oc1ccc(C=NN2CCN(c3ccccn3)CC2)cc1	·	-8.4	-5.5	14.0	·	5.3	·
11	Cc1cc(C(=O)NNC(=S)NC(=O)/C=C/c2ccccc2Cl)n[nH]1	15748	0.8	6.8	-27.1	-14.5	7.4	17.8
12	COc1ccc(N2C(=O)CS/C2=N\C(=S)Nc2ccccc2)cc1	4217	·	·	·	-5.0	·	-0.8
13	Cc1nn(C)c(C)c1S(=O)(=O)N1CCC(C(=O)NCCC2=CCCCC2)CC1	5755	·	·	0.5	3.7	0.5	0.7
14	CCCN(Cc1nnc(-c2ccccc2Cl)o1)C(=O)COc1ccc(Cl)cc1	6557	7.8	7.0	-4.9	-6.9	3.4	·
15	COc1cc(SC)ccc1C(=O)Nc1cccc(C)n1	3893	10.7	8.0	-0.5	-72.6	-4.7	11.0
16	COc1ccc(CNC(=O)C2CCN(S(=O)(=O)c3ccc4c(c3)CC(C)N4C(=O)C3CC3)CC2)cc1 (stereo not given)	6336	13.7	7.1	5.5	1.9	1.2	-7.0
17	CCOc1ccc(-c2csc(N)c2C(=O)OC)cc1	3989	·	·	41.5	-25.3	-2.8	9.9
18	COc1ccc(-c2nn(-c3ccccc3)cc2/C=N/n2cnnc2)cc1OC	3258	·	·	·	-4.5	·	1.6
19	O/N=C/c1cn(-c2ccccc2)nc1-c1ccc2c(c1)OCCO2	2251	·	·	·	-19.5	·	9.5
20	O=C(NN=Cc1coc2ccccc2c1=O)c1ccncc1	·	·	·	-8.4	·	-0.1	·
21	CCOC(=O)c1c(C)[nH]c(C(=O)COC(=O)CN2C(=O)C3CCCCC3C2=O)c1C (stereo not given)	9323	19.7	3.2	0.7	-22.3	4.0	2.8
22	CCCCC(=O)NCCc1ccc(OC)cc1	4410	·	·	1.8	-27.9	-0.1	-0.1
23	COc1cc(C#N)ccc1OCC(=O)N1CCc2ccccc2C1	2877	9.9	-3.3	4.0	2.9	-0.7	-10.8
24	O=C(COC(=O)CC1c2ccccc2CCN1S(=O)(=O)c1ccc(F)cc1)Nc1ccccc1 (stereo not given)	2466	·	·	-0.7	-4.3	9.9	1.6
25	C/C(=N\NC(=O)c1cc(C(C)C)[nH]n1)c1ccco1	2572	·	·	·	-29.1	·	1.0
26	CCc1nnc(NC(=O)c2ccc3c(=O)n4c(nc3c2)CCCCC4)s1	5814	-11.3	10.8	-9.4	3.8	9.3	-14.6
27	COc1ccc2c(c1OC)C(=O)N(c1cccc(/C=C/C(=O)O)c1)C2	3617	4.8	-0.6	6.5	-7.3	4.4	-11.6
28	Cc1ccccc1-c1nc(S(=O)(=O)c2ccccc2)c(N2CCCC2)o1	4705	14.2	7.2	2.7	-13.8	4.1	·
29	CCOC(=O)CSC1=C(C#N)C(C)C2=C(CCCC2=O)N1 (stereo not given)	2440	·	·	-1.4	-33.8	3.0	2.6
30	CC(C)(C)NS(=O)(=O)c1ccc(CCC(=O)N2CCOCC2)cc1	4063	3.6	9.7	-3.5	0.2	0.2	-9.2
31	CCCc1nc2sc3c(c2c(=O)n1NC(=O)CCC(=O)O)CCCC3	9598	3.6	-1.7	4.0	-10.0	1.1	1.1
32	CC(C)(C)c1ccc(O)c(N=Cc2cc(Br)ccc2O)c1	3913	-2.7	-2.4	4.9	-23.7	1.0	2.3
33	CCCC(c1nnnn1CCc1ccccc1)N1CCN(C(=O)c2ccco2)CC1 (stereo not given)	5443	2.6	7.6	-6.1	-22.8	-0.9	2.9
34	CSc1nc2cc(S(=O)(=O)N3CCCCC3)ccc2s1	3237	14.6	8.1	3.3	-22.8	2.8	22.7
35	O=[N+]([O-])c1ccc(N2N=C(c3ccccc3)CC2c2ccccc2O)cc1 (stereo not given)	6036	·	·	·	-4.1	·	8.7
36	CC1(C)CC(=O)C(CC2=C(O)CC(C)(C)CC2=O)=C(O)C1	9817	6.4	12.1	0.3	15.0	2.0	-5.4
37	CCN1CCN(C(=O)C=Cc2ccccc2[N+](=O)[O-])CC1	·	-4.4	0.7	0.2	·	10.5	·
38	COc1ccc(CN(C)C(=O)c2ccccc2OCc2c(C)noc2C)cc1OC	8219	7.2	0.6	8.7	-5.1	6.0	·
39	O=C(COC(=O)Cc1cccs1)NCc1ccc(F)cc1	6891	5.8	0.5	2.1	-7.3	2.6	-6.4
40	COc1nn(-c2nc(-c3ccccc3)cc(C(F)(F)F)n2)cc1[N+](=O)[O-]	2381	14.9	10.2	2.2	-5.4	5.6	-13.7
41	COC(=O)C1=C(C)NC(=S)NC1c1ccc(-c2cc(Cl)ccc2Cl)o1 (stereo not given)	5208	-4.3	1.2	33.0	-18.7	46.4	1.0
42	CC[C@@H](C)[C@H](CN[C@H](CNC)[C@@H](C)O)NCCc1ccc(OC)cc1	4325	·	·	·	-18.8	·	5.4
43	O=C(CN1CCN(c2ccc(O)cc2)CC1)Nc1ccc(SC(F)F)cc1	2525	-2.0	-8.5	6.5	-15.9	5.2	-9.0
44	C=CCOC(=O)C1=C(C)NC(=S)C(C#N)(CC=C)C1c1ccccc1Cl (stereo not given)	5397	-1.2	5.9	-1.5	·	2.1	-5.6
45	CCOC(=O)Cc1csc(NC(=O)c2c(C)noc2C)n1	4343	-5.1	-5.8	0.0	-3.5	2.9	6.7
46	CCc1n[nH]c(=S)n1/N=C/c1ccc(N(C)c2ccccc2)cc1	4452	·	·	·	-15.2	·	-0.8
47	Cn1c(NC(=O)/C=C/c2ccc(Cl)c(Cl)c2)cc(=O)n(C)c1=O	2484	·	·	·	-36.1	·	1.2
48	O=C(NCCN=C1NS(=O)(=O)c2ccccc21)c1ccc2nccnc2c1	3651	·	·	5.5	-8.7	0.6	2.3
49	Cc1ccc(C2Oc3ccccc3C3=C2C(c2cccs2)n2ncnc2N3)cc1 (stereo not given)	3203	5.3	5.7	-21.4	-30.2	5.0	3.9
50	O=C(CC1C(=O)NCCN1Cc1cccc(F)c1F)NC1CCCCCC1 (stereo not given)	6131	4.8	-0.5	0.4	-14.3	3.6	2.6

The list continues:
entry	molecule	Autofluor counter	Mtb hypoxia inh	Mtb hypoxia inh growth	Sa ugtP lethal	PrP UTR inh	RN4220 kill	BJeLR lethal
51	Cc1cc(C(=O)Nc2cccc(S(=O)(=O)N3CCCCC3)c2)c2ccccc2n1	5021	2.6	4.6	4.4	-19.2	2.6	-9.3
52	CC1CCc2sc(C(=O)OCC(=O)NC(N)=O)cc2C1 (stereo not given)	4651	19.7	-1.7	2.4	-18.4	2.3	1.7
53	COc1ccc(OCc2cc(C(=O)NC(C)c3csc(C)n3)no2)c(Cl)c1 (stereo not given)	5082	8.3	4.8	7.1	-57.2	3.6	2.9
54	c1cncc(-c2nc(NCCCn3ccnc3)c3ccccc3n2)c1	4325	-12.8	0.7	6.5	6.2	2.8	5.5
55	COc1ccccc1NS(=O)(=O)c1ccc2[nH]c(=S)oc2c1	2871	9.7	4.7	4.8	0.4	4.7	·
56	O=C(NCc1ccccn1)c1ccc([N+](=O)[O-])cc1	2650	11.7	3.7	11.1	-14.9	5.1	-1.3
57	CCCNC(=O)C(Cc1ccccc1)NC(=O)c1ccccn1 (stereo not given)	3497	2.5	4.0	-9.8	-26.2	2.9	·
58	CCN(CC(=O)Nc1ccc2c(c1)OCO2)S(=O)(=O)c1ccccc1	3707	-0.9	7.6	-4.1	-15.9	-0.2	-4.6
59	Cc1cc(OCC(=O)Nc2ccc(S(=O)(=O)NC3=NCCCCC3)cc2)c(C(C)C)cc1Cl	2512	14.4	0.1	-12.6	-17.5	-1.6	-2.2
60	COc1cccc(OCC(=O)NNC(=O)C(=O)Nc2ccc(OC)cc2OC)c1	5758	0.1	12.3	-3.6	-1.1	-2.7	-1.4
61	CCOC(=O)C(C)Oc1nc(Oc2ccccc2)nc(N(C)C)n1 (stereo not given)	2874	-7.6	-2.7	-7.6	5.8	-0.9	-6.3
62	Cc1[nH]nc(N)c1-c1ccccc1	3234	4.0	0.2	1.3	-13.0	1.7	-1.3
63	O=C(CSc1nccc(=O)[nH]1)N1CCc2ccccc2C1	6470	-3.6	-0.1	7.6	-24.4	3.4	-3.3
64	CN(C)N1C(N)=C(C#N)C(c2cccc(Cl)c2)C2=C1CCCC2=O (stereo not given)	3654	-4.9	-1.5	2.2	-7.9	3.7	0.5
65	COC(CNC(=O)CCc1c(C)nc2c(c(C)nn2-c2ccc(C)cc2)c1C)OC	3543	4.0	7.5	2.8	-11.5	-0.5	-1.0
66	CCCS(=O)(=O)c1ncc(Cl)c(C(=O)Nc2ccc(S(=O)(=O)Nc3ncccn3)cc2)n1	5759	2.9	3.4	2.5	-21.7	5.0	-6.5
67	CCCC(=O)Nc1cc(OCC)c(NC(=O)NC2CCCCC2)cc1OCC	9097	3.3	7.4	-0.4	-17.4	5.0	-3.3
68	Cc1cc(C(F)F)nn1CC(=O)NCc1ccco1	1912	-0.6	4.8	4.1	-21.9	2.6	-5.7
69	O=C(COC(=O)c1cccc(Cl)c1)Nc1cccc(S(=O)(=O)NC2=NCCC2)c1	3850	11.4	0.7	4.1	-27.0	2.5	·
70	COc1ccc2nc(SCC(=O)N(C)C3CCCCC3)c(C#N)cc2c1	6698	7.2	9.2	6.7	-11.5	5.9	-10.9
71	CCc1cc(=O)oc2c(C)c(O)c(CN3CCCCC3)cc12	6080	7.6	10.9	-2.5	-6.3	0.8	4.6
72	COc1cc(C(=O)C(=O)c2cc(OC)c(O)c(OC)c2)cc(OC)c1O	3775	-5.9	-9.2	12.0	-17.3	3.2	4.4
73	COc1cc(-c2nc3ccccc3s2)ccc1O	11178	7.1	1.3	0.1	-41.9	5.8	-7.9
74	O=C1OC2(c3ccccc3)C3CCCC2C13	5508	6.6	13.2	-0.5	-14.8	5.6	-4.6
75	CC(=O)C1C2c3ccccc3OC1(C)N=c1s/c(=C/c3cn(C)nc3C)c(=O)n12 (stereo not given)	?	·	·	·	-12.4	·	-5.4
76	O=c1c2ccccc2nnn1CSc1ccc2ccccc2n1	2626	7.9	3.8	-3.9	-19.8	4.2	-2.8
77	Cc1cc(NC(=O)C(C)SCC(=O)N(C)CC(=O)Nc2ccccc2Br)no1 (stereo not given)	5322	-4.6	5.9	-1.1	-11.3	-1.1	2.3
78	C=CCC(COCc1ccccc1)NS(=O)(=O)c1ccccc1Br (stereo not given)	3657	7.2	7.2	6.7	-17.6	7.1	2.6
79	CC(=O)Nc1cc(F)c2c(c1F)Cc1cc(F)ccc1-2	4048	13.8	10.3	14.7	-65.1	-8.2	·

Compounds above that contain bromine, in the order listed:
entry	molecule	Autofluor counter	Mtb hypoxia inh	Mtb hypoxia inh growth	Sa ugtP lethal	PrP UTR inh	RN4220 kill	BJeLR lethal
32	CC(C)(C)c1ccc(O)c(N=Cc2cc(Br)ccc2O)c1	3913	-2.7	-2.4	4.9	-23.7	1.0	2.3
77	Cc1cc(NC(=O)C(C)SCC(=O)N(C)CC(=O)Nc2ccccc2Br)no1 (stereo not given)	5322	-4.6	5.9	-1.1	-11.3	-1.1	2.3
78	C=CCC(COCc1ccccc1)NS(=O)(=O)c1ccccc1Br (stereo not given)	3657	7.2	7.2	6.7	-17.6	7.1	2.6

High-throughput results: PubChem, several laboratories
